Screening results: PubChem, Broad Institute
STK33 kinase inh: blocks human STK33 kinase activity. 320,000 tested, 0.073% active. inhibition, % at 10 µM. Q9BYT3. purified STK33, MBP phosphorylation, ADP-Glo luminescence. AID 2661;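 active means inhibition at or above 25%, using the most active replicate where run in duplicate; inactive means inhibition below 25%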
Target sequence (Q9BYT3 whole entry, looked up): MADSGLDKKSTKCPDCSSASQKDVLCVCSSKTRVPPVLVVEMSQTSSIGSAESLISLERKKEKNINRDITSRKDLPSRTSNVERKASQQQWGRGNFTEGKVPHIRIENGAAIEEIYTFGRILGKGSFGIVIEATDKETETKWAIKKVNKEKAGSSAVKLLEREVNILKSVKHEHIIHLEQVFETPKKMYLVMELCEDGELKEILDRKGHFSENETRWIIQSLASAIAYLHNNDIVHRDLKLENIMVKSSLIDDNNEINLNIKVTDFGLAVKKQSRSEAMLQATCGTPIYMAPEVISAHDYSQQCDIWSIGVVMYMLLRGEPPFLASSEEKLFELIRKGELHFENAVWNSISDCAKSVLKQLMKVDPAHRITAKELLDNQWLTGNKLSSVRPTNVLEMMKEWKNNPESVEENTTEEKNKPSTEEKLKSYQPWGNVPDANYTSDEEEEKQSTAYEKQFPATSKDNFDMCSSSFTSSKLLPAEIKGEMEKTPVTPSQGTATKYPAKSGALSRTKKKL
The depositor's hits bear a star. Not all compounds are listed; most or all hits stand in other tables.

SMILES	STK33 kinase inh
CCCNC(=O)c1ccc2c(=O)c(O)c(-c3cccc(Br)c3)[nH]c2c1	0.1
CS(=O)(=O)c1cccc(C(=O)Nc2nnc(C3=COCCO3)o2)c1	0.5
O=C(Cn1cc(S(=O)(=O)N2CCCC2)c(S(=O)(=O)N2CCCC2)c1)NCc1ccco1	-0.7
CCc1c(C(=O)N2CCOCC2)csc1C	0.6
O=C(NCc1ccccc1)C(c1cccnc1)N(C(=O)c1ccccn1)c1ccccc1F (configuration not stated)	4.5
CCOC(=O)c1ccc(NC(=S)NCCc2ccc(OC)c(OC)c2)cc1	-1.6
NC(=O)c1nsc(C(=O)N(c2cccc(F)c2)C(C(=O)NCC2CCCO2)c2ccc3ncccc3c2)c1N (configuration not stated)	-1.8
CCOC(=O)C1CCN(C(=O)COc2ccc([N+](=O)[O-])cc2)CC1	-3.9
COc1ccccc1CNC(=O)/C(C#N)=C/c1ccc(OC)c(OC)c1OC	0.5
CCOC(=O)c1ccc(N2C(=O)c3n[nH]c(C)c3C2c2ccc(OC)cc2)cc1 (configuration not stated)	-0.1
O=C(c1cc(COc2ccc3ncccc3c2)on1)N1CCC[C@H]1CO	-0.3
CN(Cc1cnccn1)C(=O)CC1C(=O)NCCN1Cc1cccc(Oc2ccccc2)c1 (configuration not stated)	-0.1
CC(NC(=O)CCl)c1ccc(Cl)c(Cl)c1 (configuration not stated)	-1.1
COCCNC(=O)CCC1CCN(Cc2cccc(Oc3ccccc3)c2)CC1	3.9
CN1CCN(C(=O)CSc2cc(=O)n(C)c3ccccc23)CC1	-2.2
Cc1ccc(S(=O)(=O)Nc2nc3ccccc3nc2Nc2cccc(S(=O)(=O)N3CCCC3)c2)cc1	0.7
Cc1c(C(=O)NC2CCCc3ccccc32)oc2ccc(S(=O)(=O)N3CCCC3)cc12 (configuration not stated)	0.5
O=C(O)c1ccc2c(c1)ncn2C1CCCCCC1	-3.0
O=C(NCc1ccccc1)NCC12CC3CC(CC(C3)C1)C2	-0.6
CCn1c(SCC(=O)c2cc(C)n(CC3CCCO3)c2C)nc2ccccc21 (configuration not stated)	0.5
CCCCN1C(=O)NC(c2cccc([N+](=O)[O-])c2)C(C(=O)OCC)=C1C (configuration not stated)	1.1
S=C1N(c2ccccc2)C(c2cccc3ccccc23)N2CCCN12 (configuration not stated)	1.6
Cc1ccccc1-c1nnn(CC(=O)Nc2cccc(S(N)(=O)=O)c2)n1	-1.1
COc1cccc(-c2cc(C(=O)N3CCc4ccccc4C3)no2)c1	-1.8
CCOc1nc2cnccc2n(CC(=O)Nc2cccc(C)c2C)c1=O	-1.1
COc1cc(-c2nc3n(n2)C(c2ccc(F)cc2)C2=C(CCCC2=O)N3)cc(OC)c1OC (configuration not stated)	-0.3
COc1cccc2c(N/N=C/c3ccccc3)cc(C)nc12	0.7
CCOC(=O)C(NS(=O)(=O)c1ccc(C)cc1)(C(F)(F)F)P(=O)(OCC(C)C)OCC(C)C (configuration not stated)	1.2
Oc1ccc(CNCC2COc3ccccc3O2)cc1 (configuration not stated)	-4.0
CN1CCc2nc(SCC(=O)Nc3cccc(F)c3)c(C#N)c(-c3cccs3)c2C1	-0.5
O=C(Nc1ccc(Oc2cccnc2)cc1)c1ccccc1Cl	-0.4
CN(CCc1ccccn1)C(=O)Nc1cccc(Cl)c1	1.3
Cc1cccc(CN2C(=O)CCSc3ccc(Cl)cc32)c1	-1.1
O=C(CCc1ccccc1)NNC(=O)c1ccc(NC(=O)c2ccccc2)cc1	-0.3
COCCN1Cc2cccc(C(=O)Nc3ccc(C)c(C)c3)c2C1=O	1.2
CCCc1cc(=O)[nH]c(Nc2ccc(OC)c(Cl)c2)n1	0.3
COc1cccc(N2C(=O)Nc3ccccc3C2(O)C(=O)NCc2ccc3c(c2)OCO3)c1 (configuration not stated)	5.9
C=CCOC(=O)C1=C[C@H](c2csc3ccccc23)[C@@H](CCCO)[C@H](OCC)O1	0.5
COCCNC(=O)CN(c1cc(Cl)ccc1OC)S(C)(=O)=O	0.0
COc1cc(/C=C2\SC(=S)N(NC(=O)c3cccnc3)C2=O)ccc1O	2.7
Cc1ccc(OCc2nnc(SCC(=O)c3ccccc3)n2Cc2ccco2)cc1	-2.5
Cc1csc(N2CCCC2c2nc3cc(C(F)(F)F)ccc3n2CCOCCO)n1 (configuration not stated)	0.0
CC1CC(C)CN(S(=O)(=O)c2cc3c4c(c2)C(C)C(=O)N4CCC3)C1 (configuration not stated)	0.8
COc1ccc(-n2nc(C(=O)NCC(=O)N3CCN(c4ccccc4OC)CC3)c3ccccc3c2=O)c(OC)c1	0.4
Nc1nc2n(n1)C(c1ccccc1Cl)CC(c1ccc(F)cc1)N2 (configuration not stated)	0.3
CCOCCCNC(=S)Nc1ccc(S(N)(=O)=O)cc1	-0.4
N/C(=N\OC(=O)c1cc(-c2ccccc2)nc2ccccc12)c1cccnc1	-1.4
Cc1cc(-c2nc(C)c(-c3nnc(SCC(=O)Nc4ccc(Cl)cc4)n3C)s2)no1	0.5
CCSc1nnc(NC(=O)CCNS(=O)(=O)c2ccccc2F)s1	-0.7
Nc1cccc(NC(=O)CCC(=O)NCc2ccco2)c1	-1.9
C#CCNC(=O)c1cc2sccc2n1C	-1.9
CSc1nsc(SC)c1NC(=O)Nc1ccccn1	1.2
COc1ccccc1N1CCN(S(=O)(=O)c2c(C)[nH]c(C)c2C(=O)N2CCCC2)CC1	-2.4
Cc1cccc(COc2ccc(/C=N/NC(=O)c3nnn(-c4nonc4N)c3COc3ccc(F)cc3)cc2)c1	-1.1
OC(COCc1ccco1)CN1CCN(C(c2ccccc2)c2ccccc2)CC1 (configuration not stated)	-0.7
COCCN1C(=O)N[C@H](c2cccc(C(F)(F)F)c2)C(C(=O)OC)=C1C	0.0
Cc1nc2scc(-c3cccs3)c2c(=O)[nH]1	0.6
O=S(=O)(NC1CCSc2ccccc21)c1ccc(Cl)nc1 (configuration not stated)	0.0
S=C(c1ccc2c(c1)OCO2)N1CCOCC1	0.1
O=c1c2ccccc2n(Cc2cccc(F)c2)c(=O)n1C1CCCC1	0.4

Next part:
SMILES	STK33 kinase inh
Cc1ccc(/C=C2\C(=N)N3N=C(CC(=O)N4CCOCC4)SC3=NC2=O)o1	0.2
Cc1cc(-c2nnc(CCC(=O)N3CCN(Cc4cccc(F)c4)CC3)o2)c(C)o1	-4.6
CCn1c(=O)n(CC)c2cc(S(=O)(=O)NCCOc3ccccc3)c(C)cc21	-3.5
CCOC(=O)N1N=C(C)CC1(O)c1ccccc1 (configuration not stated)	-2.0
[O-][n+]1c2c(nc3c1-c1ccccc1C3O)CCCC2 (configuration not stated)	-2.0
COc1ccc(C2(O)CCN(C(=O)c3c(F)cccc3F)CC2)cc1	-2.2
O=C(Nc1ccccc1)Nc1ccc2snnc2c1	0.4
O=C1c2ccccc2C(=O)N1CCCCN(C(=O)c1ccco1)c1ccc(Cl)cc1	0.7
CCOC(=O)c1cc(-c2ccc(C)c([N+](=O)[O-])c2)nc2c1c(=O)n(C)c(=O)n2C	-0.6
CCOc1ccccc1OCCC(=O)OCC(=O)Nc1c(C)nn(-c2ccccc2)c1C	-2.2
O=C1c2ccccc2C(=O)N1CCCCSc1nnnn1-c1ccccc1	-0.7
O=C(c1ccc2c(c1)OCO2)N(c1ccc(F)cc1)C1C=CS(=O)(=O)C1 (configuration not stated)	-0.4
O=C(NNc1cc(N2CCOCC2)nc(N2CCOCC2)n1)C12CC3CC(CC(C3)C1)C2	-0.8
C/C(=N/NC(=O)c1ccncc1)c1ccc(NC(=O)c2ccccc2)cc1	-0.7
Nc1c(-c2ccc(Cl)cc2)cnc2c(-c3ccc(F)cc3)cnn12	0.1
Cc1ccc(NC(=O)CSCc2cc(=O)n3cc(C)sc3n2)cc1	-1.1
CCOc1ccc(N(CC(=O)N2CCCC2)S(=O)(=O)c2ccc(F)cc2)cc1	-0.6
CCOc1ccc(CCNC(=O)C2CCCN(C(=O)N(C)C)C2)cc1OCC (configuration not stated)	-0.7
S=C(NCc1ccccc1)NN1CCOCC1	-1.4
COC(C(=O)NC1CC1)c1ccccc1 (configuration not stated)	0.8
CC(=O)Nc1ccc(NS(=O)(=O)c2cc(Cl)sc2Cl)cc1	1.0
CCc1ccccc1NC(=O)Cn1nnc(C(=O)NCc2cccc(OC)c2)c1N	-1.8
Cc1ccccc1N1CCN(S(=O)(=O)c2ccc3ccccc3c2)CC1	2.7
O=C(NC1CCCC1)C(c1ccncc1)N(Cc1ccccc1)C(=O)Cc1cccs1 (configuration not stated)	-0.6

For convenience, 15 of the compounds above:
SMILES	STK33 kinase inh
CCOc1ccccc1OCCC(=O)OCC(=O)Nc1c(C)nn(-c2ccccc2)c1C	-2.2
O=C1c2ccccc2C(=O)N1CCCCSc1nnnn1-c1ccccc1	-0.7
O=C(c1ccc2c(c1)OCO2)N(c1ccc(F)cc1)C1C=CS(=O)(=O)C1 (configuration not stated)	-0.4
O=C(NNc1cc(N2CCOCC2)nc(N2CCOCC2)n1)C12CC3CC(CC(C3)C1)C2	-0.8
C/C(=N/NC(=O)c1ccncc1)c1ccc(NC(=O)c2ccccc2)cc1	-0.7
Nc1c(-c2ccc(Cl)cc2)cnc2c(-c3ccc(F)cc3)cnn12	0.1
Cc1ccc(NC(=O)CSCc2cc(=O)n3cc(C)sc3n2)cc1	-1.1
CCOc1ccc(N(CC(=O)N2CCCC2)S(=O)(=O)c2ccc(F)cc2)cc1	-0.6
CCOc1ccc(CCNC(=O)C2CCCN(C(=O)N(C)C)C2)cc1OCC (configuration not stated)	-0.7
S=C(NCc1ccccc1)NN1CCOCC1	-1.4
COC(C(=O)NC1CC1)c1ccccc1 (configuration not stated)	0.8
CC(=O)Nc1ccc(NS(=O)(=O)c2cc(Cl)sc2Cl)cc1	1.0
CCc1ccccc1NC(=O)Cn1nnc(C(=O)NCc2cccc(OC)c2)c1N	-1.8
Cc1ccccc1N1CCN(S(=O)(=O)c2ccc3ccccc3c2)CC1	2.7
O=C(NC1CCCC1)C(c1ccncc1)N(Cc1ccccc1)C(=O)Cc1cccs1 (configuration not stated)	-0.6

Additional compounds
SMILES	STK33 kinase inh
Cc1cc2oc(C(=O)NCc3ccncc3)c(C)c2cc1C	1.1
CCOc1cc(N2CCOCC2)c(OCC)cc1NC(=O)CN1CCN(Cc2ccc3c(c2)OCO3)CC1	0.9
Cc1ccsc1C(C(=O)NCc1ccccc1)N(C(=O)c1csnn1)c1ccccc1 (configuration not stated)	-1.8
Cc1ccc(S(=O)(=O)NCC(=O)OCc2csc(-c3ccccc3)n2)cc1	-0.9
NC(=O)C1CCN(CC(=O)Nc2cc(Cl)ccc2Oc2ccccc2)CC1	4.7
Cc1cc(NCc2ccccc2Cl)n2nnnc2n1	-1.2
CC(=O)c1sc(NC(=O)CCS(=O)(=O)c2ccccc2)nc1C	-1.2
CN(C)CCC(O)(c1ccccc1)c1ccccc1	-1.3
CN1C(=O)C(C)(C)c2cc(S(=O)(=O)NCc3ccc(Cl)cc3)ccc21	0.7
COc1ccc(-c2ccc(=O)n(CC(=O)Nc3ccc(C(=O)NC4CC4)cc3)n2)cc1OC	-1.6
C/C(=N\Nc1nc(-c2ccccn2)nc2ccccc12)c1ccc(F)cc1	-0.2
COc1ccc(NC(=O)NC23CC4(C)CC(C)(CC(C)(C4)C2)C3)cc1	-2.0
Cn1cnc(S(=O)(=O)N2CCN(c3ccc(F)cc3)CC2)c1	-1.2
Cc1ccc(S(=O)(=O)c2nc(C)c3c(n2)CCC3)cc1	0.3
O=c1c2nnn(Cc3ccccc3)c2ncn1C/C=C/c1ccccc1	-1.7
CC(C)(C)NC(=O)C(c1ccncc1)N(C(=O)Cn1nnc(-c2ccc(F)cc2)n1)c1ccc(F)cc1 (configuration not stated)	-1.0
Cc1ccc2c(c1)c1cccc3c1n2CCN3CCC(N)=O	5.0
CC(C)(C)c1ccc(C(=O)Nc2ccc(CC(=O)O)cc2)o1	-1.3
CCCCN(CCCC)CCNC(=O)c1cn(C)c2ccc(S(=O)(=O)N(C)C3CCCCC3)cc2c1=O	-1.4
COc1cc2ncnc(Nc3ccc4c(c3)OCO4)c2cc1OC	12
CCC1Oc2ccccc2N(CC(=O)NCCCN2CCN(Cc3ccccc3)CC2)C1=O (configuration not stated)	-1.4
CN(C)S(=O)(=O)c1ccc(C(=O)Nc2nnc(-c3ccco3)o2)cc1	-3.1
CCCC(=O)Nc1ccc(C(=O)NCC(=O)OCC)cc1	-2.1
CC(C)(C)NC(=S)NCc1ccc2c(c1)OCO2	-1.1
COc1ccc(OC)c(S(=O)(=O)n2c([N+](=O)[O-])cnc2C)c1	-1.7
CCOC(=O)c1ccc(NC(=O)CN2CCN(c3ccccc3)CC2)cc1	0.4
CCOc1cc(Br)cc(/C=C2\SC(=Nc3ccccc3)NC2=O)c1O	-1.6
CC(C)OCC(O)CSc1ccccn1 (configuration not stated)	-0.5
O=C(Oc1ccccc1N1C(=O)C2CCCCC2C1=O)c1ccc(Cl)cc1 (configuration not stated)	-1.1
Cc1cc(NC(=O)Nc2cccc(C)c2C)no1	0.5
O=C(C1CC(=O)N(c2ccc(F)cc2)C1)N1CCN(c2ccccc2)CC1 (configuration not stated)	-0.7
Nc1nc(=S)c2ncn([C@@H]3O[C@H](CO)[C@@H](O)[C@H]3O)c2[nH]1	-0.9
Cc1noc(C)c1COc1ccc(C(=O)NCC2CCCO2)cc1 (configuration not stated)	-2.9
CCCCNC(=S)NNC(=O)c1csc2c1CCC(C)C2 (configuration not stated)	-0.5
CCN(CCCNC(=O)C1c2ccccc2C(=O)N(CCOC)C1c1ccc(F)cc1)Cc1ccccc1 (configuration not stated)	-1.7
S=C(NCc1ccccc1)Nc1ccc2ccccc2c1	0.0
N=C(N)SCc1ccc(Cl)cc1Cl	-1.4
COC(=O)c1cn(C)c2ccc(S(=O)(=O)N3CCOCC3)cc2c1=O	-0.5
O=C(Nc1ccc2nc(-c3cccnc3)[nH]c2c1)C12CC3CC(CC(C3)C1)C2	-0.2
O=C(NC1CCSc2ccccc21)c1c(F)cccc1Cl (configuration not stated)	-1.0
CCCCC(O)(CCCC)C(=O)NN(C(=O)OC)c1ccc(C)cc1	0.5
CC(C(=O)Nc1ccccc1F)N1C(=O)c2ccccc2C1=O (configuration not stated)	-0.4
